Screening data: PubChem, ICCB-Longwood Screening Facility, Harvard Medical School
AID504770 = growth inhibition of E. coli YBA685, primary screen, V. cholerae RctB inhibitors; E. coli YBA685 rctB-dependent plasmid, OD600 growth, 3 h; stronger effect = lower value; z-score (no concentration beside the values); 0.27% of 130,000 active; AID 504770, 2011;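 active = z-score under -2 on both plates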;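 note: wells of about 30 µL received 100 nL stock; score is relative to mean and SD of the test wells; the first replicate is given; strong numbers were not always called active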
CapD inh = Bacillus anthracis CapD inhibitors, primary screen, biochemical, fluorescence intensity; CapD gamma-glutamyltranspeptidase (Bacillus anthracis Ames Ancestor); purified CapD enzyme, fluorescence intensity read-out; stronger effect = lower value; some hits fall short of the stated cut; z-score (no concentration beside the values); 0.23% of 140,000 active;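 active = z-score under -4 in either of two replicates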;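 note: stock transfer was 100 nL into about 40 µL; score is relative to mean and spread of the plate; one replicate is shown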
An asterisk follows results filed as active; i = inactive; · = no result given. A portion of the library (hit frequency here may not be typical).

Values in the order – CapD inh, AID504770
> COc1ccc(OCC(F)(F)F)c(C(=O)Nc2cccnc2)c1
  0.16, -0.35
> Cc1ccc(-c2noc(CCC(=O)N(C)c3ccccc3)n2)cc1
  -0.53, 1.9
> CCN1CCN(Cc2ccc(NC(=O)CN3C(=O)CSc4ncccc43)cc2)CC1
  -0.61, 1.9
> CSc1ccc(-c2nc3ncccn3c2Nc2ccccc2)cc1
  0.17, 0.3
> CC(CNC(=O)CCc1nnc2ccc(N3CCCC3)nn12)c1ccccc1 (stereo not given)
  -0.41, -0.65
> CCN(CC)c1ccc(C(=O)N2CCCCC2C)cc1 (stereo not given)
  ·, 0.95
> CCC(C)Cn1c(CO)nc2ccccc21 (stereo not given)
  0.45, 1.6
> O=C(c1ccc2c(c1)OCCO2)c1ccccc1Cl
  0.14, 0.45
> OCCN1CCN(C2=Cc3ccccc3C2)CC1
  0.91, 0.05
> Cc1nc2ccccn2c1-c1ccnc(SCC(=O)Nc2ccccc2)n1
  1.2, -0.05
> Cc1ccccc1S(=O)(=O)Nc1ccc2oc3c(c2c1)CC(C(C)(C)C)CC3 (stereo not given)
  0.035, ·
> CCC(=O)Nc1cccc(C)c1
  ·, -0.55
> CC(=O)N(c1ccccc1)C1(C(=O)NC2CCCC2)CCCCC1
  -0.58, 1.5
> C[N+]12CCCCC1C(COc1ccccc1Br)CCC2 (stereo not given)
  0.095, 0.75
> COc1ccc(Br)cc1COC(=O)N1CCC(O)(c2cccc(C(F)(F)F)c2)CC1
  -0.22, ·
> O=C(OCCN1CCN(Cc2cc3ccccc3o2)CC1)N1CCN(c2ccc(C(F)(F)F)cc2)CC1
  0.11, ·
> O=C(O)CCC(=O)Nc1cccc(-c2nn(-c3ccccc3)cc2C(=O)O)c1
  ·, -0.7
> COc1cc2nc(SCc3ccc(C#N)cc3)n3nc(CCn4c(C)nc5ccccc54)nc3c2cc1OC
  -0.4, -0.5
> COc1cccc(OCC(=O)Nc2cccc(C#N)c2)c1
  -0.82, -1.2
> COc1ccc(N(C)S(=O)(=O)c2cccc(C(=O)Nc3ccc(N4CCN(C)CC4)cc3C)c2)cc1
  ·, 0.95
> CCCCNC(=O)CSc1nc2ccccc2n1S(=O)(=O)c1ccc(Br)cc1
  0.51, ·
> CCN(CC)Cc1c(C(=O)OC)nnn1-c1nonc1N
  36, ·
> CSc1ccc(NC(=O)C2CC(O)CN2C(=O)Nc2ccccc2)cc1 (stereo not given)
  ·, 1.9
> O=C(Cn1c2c(c(-c3ccccc3)cc1=O)CCCC2)N1CCCC1
  -2.8, -0.5
> CCS(=O)(=O)c1c(S(=O)(=O)CC)c2ccc(C(C)=O)cn2c1C(=O)c1ccccc1
  5.9, ·
> Cc1ccc(C(=O)NC2CC(C)(C)NC(C)(C)C2)cc1
  ·, -0.8
> CCCOC(=O)CCCCC1SCC(NC(=O)c2ccccc2)C1NC(=O)c1ccccc1 (stereo not given)
  -0.39, ·
> OC(CNCCC1=CCCCC1)c1ccccc1 (stereo not given)
  ·, 0.2
> COc1ccc(CCNC(=O)c2sc3ncnc(N4CCOCC4)c3c2C)cc1OC
  -0.29, ·
> CN(C)c1oc(-c2ccccc2)nc1C#N
  73, 3.5
> C=CCN1C(=O)NC(=O)/C(=C/c2ccc(OCc3ccccc3C#N)c(OCC)c2)C1=O
  -0.17, ·
> CCN(CC)c1ccc(C2NC(=O)NC(c3cc(C)n(-c4cc(C(=O)OC)cc(C(=O)OC)c4)c3C)=C2C#N)cc1 (stereo not given)
  ·, -0.55
> O=C(CSc1nccc(-c2cccs2)n1)Nc1cccc(Cl)c1
  0.23, -1.1
> C=C(C)c1cccc(C(C)(C)NC(=O)N2CCN(c3ccc(F)cc3)CC2)c1
  0.51, 0.35
> COc1cccc2cc(C(=O)Nc3ccccc3F)c(=Nc3ccc(C(=O)O)cc3)oc12
  -0.24, ·
> CC1CC(C)CN(Cc2nc3c(c(=O)n(C)c(=O)n3C)n2CC(N)=O)C1 (stereo not given)
  1.2, -0.3
> COc1ccc(OC(F)(F)C(=O)Nc2ccc(OC(F)(F)F)cc2)cc1
  0.14, ·
> O=c1[nH]cnc2scc(C3COc4ccccc4O3)c12 (stereo not given)
  -1.1, -0.9
> CCNc1nc(F)cc(=O)[nH]1
  -0.27, 1.3
> Cc1nc(/C(N)=N/O)cs1
  -0.33, 0.35
> CCOC(=O)CC(C)(O)c1ccccc1 (stereo not given)
  0, -0.7
> COc1ccc2[nH]c(C(=O)O)c(CCC(=O)O)c2c1
  44, 0.15
> COc1ccc(C2C(N3C(=O)c4c(Cl)c(Cl)c(Cl)c(Cl)c4C3=O)C(=O)N2c2ccc(C)c(Cl)c2)cc1Br (stereo not given)
  -0.23, ·
> CSc1nn(-c2ccccc2)cc1C(=O)Nc1ccccc1
  -0.075, 2
> Cc1ccc2sc(NC(=O)c3ccc(S(=O)(=O)N(CCCl)CCCl)cc3)nc2c1
  13, ·
> COc1cccc(NC(=O)CSc2ncnc3c2oc2ccccc23)c1
  -0.14, -0.2
> O=C(CCn1c(=O)oc2ccccc21)NCCC1=CCCCC1
  0.7, -0.1
> COC(=O)c1ccc(Cc2ccccc2)o1
  ·, -0.3
> COC(=O)c1c(COC(=O)c2ccc(Br)o2)nc2ccccc2c1C
  ·, -0.5
> Oc1ccccc1CNc1ccc2c(c1)ncn2C1CCCCC1
  55, -0.2
> N#C/C(C(=O)NCCN1CCOCC1)=c1/s/c(=C/c2ccccn2)c(=O)n1-c1ccc(F)cc1
  ·, 1.6
> O=C(NCc1cccs1)c1ccc(NC(=O)C2CCCO2)cc1 (stereo not given)
  0.63, 0.05
> CC(=O)N1C(=O)C2(C(C#N)=C(N)OC3=C2C(=O)CC(c2ccco2)C3)c2ccccc21 (stereo not given)
  -0.06, ·
> COCc1cc(=O)n2c([nH]c3ccccc32)c1C#N
  42, -0.8
> Cc1ccc(N2C(=O)c3oc4cc(C)c(C)cc4c(=O)c3C2c2ccc(O)cc2)nc1 (stereo not given)
  2.3, -0.35
> COC(=O)c1sccc1OCc1cccc(C(F)(F)F)c1
  -0.12, 1.9
> CCCSc1nnc2c(n1)OC(c1ccc([N+](=O)[O-])o1)Nc1ccccc1-2 (stereo not given)
  -0.49, ·
> CCn1cc(/C=C(\NC(=O)c2ccccc2Cl)C(=O)N2CCc3ccccc32)c2ccccc21
  5.8, -0.05
> O=C(OCc1ccc(F)c(C(F)(F)F)c1)N1CCC(O)(c2cccc(C(F)(F)F)c2)CC1
  0.32, ·
> O=C(CSc1ncc(-c2ccccc2)n1-c1ccccc1)NC1CCS(=O)(=O)C1 (stereo not given)
  ·, 0.65

Other results
Values in the order – CapD inh, AID504770
> COc1ccccc1/C=N/NC(=O)/C=C/c1ccc2c(c1)OCO2
  4, ·
> Cc1ccc(C(C)C)cc1S(=O)(=O)Nc1ccccn1
  ·, 0.15
> CN(C)Cc1nc2c([nH]1)c(=O)[nH]c(=O)n2C
  ·, -0.1
> O=C1C2CCCCC2C(=O)N1CN1CCOCC1 (stereo not given)
  -0.52, ·
> CCOC(=O)c1nc(-c2ccc3c(c2)OCO3)[nH]c1C
  0.86, -0.4
> Cc1c(C(=O)N2CCNCC2)oc2ccccc12
  0.48, -0.6
> COC(=O)C(=NNc1ccc(-n2nc(C)cc2C)cc1)C(=O)OC
  -2.4, ·
> COC(=O)c1ccc(C)c(NC(=O)C(NC(C)=O)C(C)C)c1 (stereo not given)
  ·, 1.4
> CCOC(=O)C1=C(C)Nc2ncnn2C1c1ccccn1 (stereo not given)
  -1.1, ·
> Cc1ccc2c(c1)N(CC(=O)N(C)Cc1ccccc1)C(=O)CO2
  -0.095, 0.65
> CC(N)Cc1c[nH]c2cc3c(cc12)OCCO3 (stereo not given)
  3.1, -0.4
> CC(NC(=O)C(c1ccccc1)c1ccccc1)C(=O)Nc1ccc(Br)cc1 (stereo not given)
  i, 0.55
> COc1ccc(CN(Cc2cccn2C)S(=O)(=O)c2ccccc2)cc1
  -0.13, -0.25
> C=CCN1C(=O)/C(=c2\sc3n(c2=O)C(c2cccs2)C(C(=O)OC)=C(C)N=3)c2ccccc21 (stereo not given)
  -0.17, ·
> NC(=S)Cc1ccc(CC(N)=S)o1
  -1.4, 0.15
> CC1=C(C(N)=O)C(c2ccccc2F)NC(=O)N1 (stereo not given)
  0.02, -0.65
> CCCc1nc2sc3c(N4CCCCC4)ncnc3c2c2c1COC(C)(C)C2
  0.095, ·
> CC1CCc2ccc(F)cc2N1S(=O)(=O)c1ccc(Cl)s1 (stereo not given)
  -1, 1.1
> Cc1ccc(C(=O)CSc2nnc3[nH]c(=O)cc(C)n23)cc1
  -0.28, -0.5
> Cc1csc(NC(=O)c2cccs2)n1
  -3.2, -0.85
> O=C(Nc1nc2nc(-c3ccccc3)cc(=O)n2[nH]1)c1ccccc1
  -0.4, -0.5
> Cc1ccc(CNC(=O)CCn2nc(C)c(S(=O)(=O)N3CCCC3)c2C)cc1
  0.86, -0.15
> CCOc1ccc(N2C(=O)/C(=C/c3cc(Cl)c(OCC(=O)O)c(Cl)c3)C(=O)NC2=S)cc1
  -0.58, ·
> O=C(O)Cc1csc(-c2ccccc2)n1
  0.03, ·
> N#Cc1ccc(CSC2=Nc3ccccc3C3CC=NN23)cc1 (stereo not given)
  ·, -1.8
> CN=c1scc(-c2ccc(C)c(C)c2)n1/N=C(\C)c1cccnc1
  ·, -0.65
> COc1cc(OC)cc(/C(N)=N/O)c1
  -0.2, 1.1
> CCOC(=O)c1cc(=O)n2[nH]c(-c3ccc(C)cc3)cc2n1
  ·, -0.3
> Cc1ccc(NC(=O)CCn2nc(C)cc2C)c(C)c1
  0.22, 1.3
> COc1ccc(Oc2ccc(C#N)cc2)cc1
  -0.21, 0.85
> CC1=C(C)CS(=Nc2ccc(C)cc2)N(S(=O)(=O)c2ccccc2)C1 (stereo not given)
  0.17, ·
> CNC(=O)c1c(NC(=O)/C=C/c2cccs2)sc(C)c1C
  ·, 0.3
> Cc1ccc(-n2nc3c(c2NC(=O)c2cc4ccccc4oc2=O)CSC3)c(C)c1
  -0.4, ·
> Cc1nn(-c2ccccc2)nc1-c1nnc(-c2cccc3ccccc23)o1
  47, 0.65
> Cc1ccc(S(=O)(=O)CC2CSc3nc4ccccc4n32)cc1 (stereo not given)
  -0.045, -0.3
> CC(=O)Nc1sc(-c2ccccc2)nc1-c1ccccc1
  2, 2.3
> COc1ccc(C2=NN(C(C)=O)C(c3cc(OC)ccc3OC)C2)cc1 (stereo not given)
  0.65, ·
> CCOc1ccc(S(=O)(=O)N2CCN(CN3C(=O)CC4(CCCC4)C3=O)CC2)cc1
  ·, 1.6
> CCSc1ncnc2c(-c3ccc(OC)cc3)nsc12
  ·, -0.3
> C/C(=N\N)c1ccc2[nH]c3c(c2c1)CCC/C3=N\N
  0.075, -0.2
> CC1(C)CC(NC(=O)/C=C/c2ccc(F)cc2)CC(C)(C)N1
  -1.1, 2
> CC(C)(CO)NC(=O)CSc1ccc(C(F)(F)F)cc1Cl
  -0.01, 1.5
> Cc1ccccc1C(=O)OCCN1C(=O)c2cccc3c(N4CCOCC4)ccc(c23)C1=O
  1.5, ·
> CC(C)(C)c1ccc(OCCCn2c(=O)sc3ccccc32)cc1
  0.35, 0.55
> NCC1NCCc2ccccc21 (stereo not given)
  ·, -0.35
> O=C(Cn1cnc2c(cnn2-c2ccc(F)cc2)c1=O)NC1CCCC1
  ·, -0.1
> O=C(Cc1n[nH]c(=O)[nH]c1=O)N/N=C/c1ccccc1
  0.52, 0.95
> Cc1nc2ccccc2n1CC(=O)OCC(=O)N1c2ccccc2CC1C (stereo not given)
  0.47, -0.4
> COc1ccc(NC(=O)Cn2c3ccccc3c(=O)c3cc(OC)ccc32)c(OC)c1
  -0.22, ·
> O=c1c(N2CCCCC2)csc2ccccc12
  -3.5, 0.1
> CCOC(=O)Cc1csc(N(C)C)n1
  ·, -0.7
> CCCOC(=O)COc1ccc2c(=O)c(-c3ccccc3)coc2c1
  -0.2, 2.2
> S=C(Nc1ccccc1)Nc1ccccc1-n1cccc1
  2.1, -1.2
> Cn1ncc2c(c(SCc3ccc(Cl)cc3Cl)nn2C)c1=O
  0.54, -2
> CN(C)c1ccc(CC(C#N)c2ccc(N)cc2)cc1 (stereo not given)
  1.1, ·
> CCn1c(=S)sc2c(=O)n3[nH]c(=O)c4ccccc4c3nc21
  4.1, 0.6
> CCNC(=O)COc1ccc(OCc2ccccc2)cc1
  -0.71, 0.8
> COc1ccccc1NS(=O)(=O)c1ccc(C)c(C(=O)N2CCCC2)c1
  ·, 0.45
> NCCC(c1ccccc1)c1ccccc1
  -0.39, -0.45
> O=C(COC(=O)C1CC2CCCC(C1)C2=O)NC1CCS(=O)(=O)C1 (stereo not given)
  ·, -0.3
> CCOC(=O)c1c(Nc2nc3ccccc3nc2N2CCN(C(=O)OCC)CC2)sc(C)c1C
  ·, -0.2

Filtered by structure, the entries above with a COOH group
Values in the order – CapD inh, AID504770
> O=C(O)CCC(=O)Nc1cccc(-c2nn(-c3ccccc3)cc2C(=O)O)c1
  ·, -0.7
> COc1cccc2cc(C(=O)Nc3ccccc3F)c(=Nc3ccc(C(=O)O)cc3)oc12
  -0.24, ·
> COc1ccc2[nH]c(C(=O)O)c(CCC(=O)O)c2c1
  44, 0.15
> CCOc1ccc(N2C(=O)/C(=C/c3cc(Cl)c(OCC(=O)O)c(Cl)c3)C(=O)NC2=S)cc1
  -0.58, ·
> O=C(O)Cc1csc(-c2ccccc2)n1
  0.03, ·
